PrP 5UTR inh = inhibition of PrP 5' UTR reporter expression | AID 488862, 2010 | 340,000 compounds, 0.35% hits | cell-based PrP 5' UTR mRNA reporter, plate reader | inhibition, % (concentration not given with the values);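 active = every replicate at 50% or more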;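 note: 0 = median of the neutral control wells; tested in H4 reporter cells; numbers are from one replicate; inactives centre near -14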
Autofluor counter = compound fluorescence in toxin protease inhibitor counterscreen | 360,000 compounds, 3.1% hits | compound autofluorescence counterscreen, microsphere flow cytometry; hits give high values | fluorescence intensity (test concentration not listed) | AID 624483;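 active = at least 3 SD above the mean of all compounds, about 16000 in these data; inconclusive = too few beads counted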;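 note: 100 nL of 1 mM stock went into each well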
Sa ugtP lethal = growth inhibition of ugtP-null S. aureus, primary screen, RN4220 ugtP deletion, OD600; 16 h; some inactives read as strong as hits; growth inhibition, % (concentration not given with the values); 330,000 compounds, 0.54% hits; AID 1259309, 2017;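 active = z-score under -3 and OD600 up to 0.15 on both plates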;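 note: plate controls were untreated wells for no effect and antibiotic for full effect; wells of about 80 µL received 100 nL stock; the first replicate is given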
Mtb hypoxia inh = PubChem AID 1159583; fluorescence inhibition, % (test concentration not listed); 300,000 compounds, 0.1% hits; M. tuberculosis hypoxia-regulated fluorescent reporter, fluorescence;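 active = 35 to 45% if threefold the growth effect, above 45% if 1.5-fold the growth effect; inactive = the rest, general growth blockers included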;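 note: wells of about 50 µL received 100 nL stock; 0% = vehicle wells and 100% = reference inhibitor wells; whole bacteria with a GFP reporter of the hypoxia response; strong numbers were not always called active; many hits fall short of the cut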
BJeLR lethal = MLPCN primary cell-based screen for lethality selective to Ras in HRASV12 cells; 300,000 compounds, 0.17% hits; BJeLR (HRASV12) viability, CellTiter-Glo ATP luminescence, 48 h; reference of the scale not given here; inhibition, % (concentration not given with the values); AID 1554, 2009;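 active = replicate mean above 50%; inconclusive = above 50% but judged a plate artefact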;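 note: 50 nL library stock added to about 25 µL; numbers are from one replicate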
Sa RN4220 lethal = growth inhibition of S. aureus RN4220, primary screen, OD600; 330,000 compounds, 0.33% hits; 16 h; inhibition, % (concentration not given with the values);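 active = z-score of -3 or lower and OD600 up to 0.18 on both plates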;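 note: plate controls were untreated cells for no effect and reference antibiotic for full effect; stock transfer was 100 nL into about 80 µL; one replicate is shown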
Mtb hypoxia inh growth = further read-out of Mtb hypoxia inh, marked with its call; growth inhibition, %; measured here: M. tuberculosis growth (absorbance);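 0% = vehicle and 100% = reference antibiotic; read after six days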
* marks the source's active call; other numbers are inactive results; ? = inconclusive; . = no result given.

SMILES	PrP 5UTR inh	Autofluor counter	Sa ugtP lethal	Mtb hypoxia inh	Mtb hypoxia inh growth	BJeLR lethal	Sa RN4220 lethal
Cc1csc(N(C(=O)c2ccc(S(=O)(=O)N(C)C)cc2)c2ccccc2)n1	-10.0	2427	-15.0	.	.	6.2	0.8
c1ccc2c(CCNC3CCCCC3)c[nH]c2c1	-17.9	4821	0.0	13.6	5.1	-6.5	1.6
COc1cc(S(=O)(=O)NC2CCSc3ccccc32)ccc1NC(C)=O (centres undefined)	-23.6	3002	.	.	.	-4.2	.
Cc1ccc(NC(=S)NNC(=S)NCc2ccccc2)cc1	-3.2	3432	6.7	.	.	6.8	7.5
Cn1nc(C(=O)OCc2ccc(F)cc2)c2ccccc2c1=O	-8.8	3362	4.8	2.2	12.0	25.2	1.1
O=C(NCc1ccc(F)cc1)C1C2C=CC3(CN(Cc4cccnc4)C(=O)C13)O2 (centres undefined)	-1.4	10821	-0.9	-8.6	3.2	1.8	3.4
O=S(=O)(Cc1ccccc1)NCC1CCCN(Cc2ccc(F)c(F)c2)C1 (centres undefined)	-20.2	5149	5.8	-5.4	13.3	-11.8	4.4
CCOc1cc(-c2nc(-c3ccc(C)nc3OCC)no2)cc(OCC)c1OCC	-17.0	23089*	7.2	5.2	-0.8	-1.6	2.0
O=C(Nc1ccccc1)N1CCN(c2cccc(C(F)(F)F)c2)CC1	-18.5	9373	-1.0	5.2	8.1	5.6	2.2
O=C(Nc1ccc(-c2cn3ccccc3n2)cc1)c1ccco1	-85.0	7059	8.0	-5.4	-6.2	19.3	8.7
CCn1c(=O)c(C(=O)NCc2ccc(F)cc2)c(O)c2ccccc21	-17.8	3633	6.4	0.6	13.9	-15.8	4.3
O=CN1CCN(C(=O)c2cccc3c2-c2ccccc2C3=O)CC1	-16.9	3945	5.3	2.7	2.7	-0.7	1.3
O=C(COc1ccc(Cl)cc1)NCCCn1ccnc1	-7.0	3424	2.6	-8.8	-1.8	19.2	13.8
c1ccc2c(CNn3cnnc3)cccc2c1	-15.3	2663	4.8	.	.	-4.9	4.0
Cc1[nH]nc2ncc(C(=O)c3ccccc3O)cc12	26.2	5567	-11.4	-6.3	-1.5	3.1	-1.7

Overlap with the part before: two compounds, followed by the next part.
SMILES	PrP 5UTR inh	Autofluor counter	Sa ugtP lethal	Mtb hypoxia inh	Mtb hypoxia inh growth	BJeLR lethal	Sa RN4220 lethal
c1ccc2c(CNn3cnnc3)cccc2c1	-15.3	2663	4.8	.	.	-4.9	4.0
Cc1[nH]nc2ncc(C(=O)c3ccccc3O)cc12	26.2	5567	-11.4	-6.3	-1.5	3.1	-1.7
COc1cccc(CC(=O)Nc2ccc(S(=O)(=O)N3CCOCC3)cc2)c1	12.0	?	-2.1	-12.1	2.4	-7.5	-2.0
CCN(C(=O)c1c(C)cc(=O)oc1C)c1ccc2c(c1)OCO2	-20.4	3245	4.6	13.8	12.8	1.7	4.5
Cc1ccc(C(=O)N2CCN(c3ccc(NC(=S)NC(=O)c4cccs4)cc3)CC2)cc1	-1.1	3700	86.6	.	.	1.8	4.6
O=C(NCc1ccco1)C(c1ccccc1)N(C(=O)Cc1cccs1)c1cccnc1 (centres undefined)	-28.7	2280	-0.4	-7.5	-7.4	-6.2	1.4
O=C1Nc2ccccc2/C1=C/c1cnc(-c2ccccc2)[nH]1	-91.4	.	-19.7	-1.6	9.5	-3.0	3.8
NC(=O)c1nsc(C(=O)N(CC(=O)NCc2ccc(F)cc2)Cc2ccco2)c1N	1.9	2084	-4.4	.	.	-2.5	-1.8
O=c1c2cccnc2[nH]c(=S)n1CCCN1CCN(c2ccccc2F)CC1	-24.9	3713	5.4	6.0	2.5	-0.5	1.7
Cc1c(Cl)c(=O)oc2cc(OCC(=O)NCc3cccs3)ccc12	-1.9	2195	2.0	8.2	6.9	7.3	4.7
CCOC(=O)c1sc(NC(=O)CS(=O)(=O)c2ccc(C)cc2)nc1C	7.9	6040	-5.4	-8.8	11.9	0.9	7.4
COC(=O)c1ccc(NC(=O)CSC2=NC(=O)C(c3ccccc3)C(=O)N2)cc1 (centres undefined)	-16.3	9226	3.3	0.9	8.8	-15.8	6.9
COc1cccc(C(=O)Nc2nnc(S(=O)(=O)N(C)Cc3ccccc3)s2)c1	-25.9	?	33.9	0.0	0.6	6.8	40.9
O=C(COc1ccc([N+](=O)[O-])cc1)Nc1cc(C(=O)O)cc(C(=O)O)c1	-29.5	4878	2.7	8.5	3.5	-2.4	6.7
CCc1ccc(CCC(=O)Nc2nnc(C)s2)o1	-13.0	20941*	13.3	4.7	1.9	2.3	6.7
FC(F)(F)COc1ccc(-n2ccnc2)nn1	-7.7	4190	4.6	14.7	13.1	-21.2	5.2
COc1cccc(/C=N/n2c(=S)n(C)c3cc(C)c(C)cc32)c1OC	-2.1	22389*	.	.	.	1.5	.
NC(=O)/C(=C/c1ccco1)C(N)=S	-25.0	3886	0.4	16.9	12.4	-7.3	3.7
Cc1ccc(OCC(=O)c2cc(C)n(-c3ccccc3)c2C)c([N+](=O)[O-])n1	59.7*	2161	3.6	3.3	8.4	2.1	-1.0
N#CC(C(N)=O)=C1CCC2(CC1)OCCCCO2	-8.7	4668	-1.9	.	.	.	3.2
O=C(O)CCCN=C1CCCc2ccccc2N1	1.8	6345	17.9	4.4	0.5	-1.6	6.3
Cc1cc(OC(C)C(=O)NCc2cccnc2)c2c(C)cc(=O)oc2c1 (centres undefined)	9.2	5555	3.3	2.6	2.4	7.1	2.6
CCC(=O)Nc1ccc(NC(=O)Cc2ccccc2)cn1	-16.5	2878	2.2	7.9	11.0	-0.1	3.2
O=C(NCCc1ccco1)C(=O)NCC1OCCCN1S(=O)(=O)c1ccc(F)cc1 (centres undefined)	-11.9	4673	4.1	-10.5	-9.2	-12.0	2.1
Cc1nc(Cc2nnc(SCC(=O)N3CC(=O)Nc4ccccc43)o2)cs1	-5.6	3710	5.2	5.8	10.3	.	2.3
COc1ccc(-c2nc(NC(=O)C3CC(=O)N(Cc4ccco4)C3)sc2C)cc1 (centres undefined)	-20.2	3704	-10.6	-4.0	7.6	.	-6.1
CCCCCOc1ccc(C(=O)NC(CCC)C(=O)O)cc1 (centres undefined)	3.9	3221	-5.0	15.4	3.8	-2.2	-5.3
COC(=O)C1=C(c2cccc(C#N)c2)CC2CCC1N2C(=O)NCCO (centres undefined)	.	.	10.1	11.3	-1.1	.	8.6
Cc1cc(Nc2cccc(F)c2)nc(-c2ccccc2O)n1	-4.0	9162	-12.1	-6.2	1.8	-7.7	-14.6
CCOC(=O)Nc1ccc2c(c1)Cc1cc([N+](=O)[O-])ccc1-2	-85.1	3392	-3.6	7.7	4.7	.	5.1
O=C(COc1ccc(-c2nnco2)cc1)N1CCN(S(=O)(=O)c2ccccc2)CC1	-22.4	4212	3.2	.	.	-7.3	2.4
COc1ccc(OC)c(C2/C(=C(\O)c3ccc(OC)c(Cl)c3)C(=O)C(=O)N2CCN(C)C)c1 (centres undefined)	-25.8	4185	5.4	9.2	3.8	-5.3	6.1
COc1cc(CNCCO)cc(Br)c1OCc1cccs1	-20.9	3112	0.6	13.2	6.5	4.2	2.2
COc1ccc(Cl)cc1N(CC(=O)N/N=C/c1ccc(OC(C)C)cc1)S(=O)(=O)c1ccc(C)c([N+](=O)[O-])c1	-13.3	2123	.	.	.	-4.7	.
O=C(N/N=C/c1nn(-c2ccccc2)cc1-c1ccccc1)c1ccncc1	-21.3	2657	.	.	.	-20.1	.
O=C(CN1CCN(S(=O)(=O)c2ccccc2)CC1)Nc1ccc(Cl)c([N+](=O)[O-])c1	-25.8	5984	-0.4	-1.7	1.5	13.0	-3.7
N/C(=N\S(=O)(=O)c1cc(C(F)(F)F)cc(C(F)(F)F)c1)c1cccs1	-25.0	.	-9.2	8.2	-6.9	0.6	1.8
CC(C)(C)C(=O)Nc1c2c(nn1-c1cccc(Cl)c1)CS(=O)(=O)C2	-4.0	3724	-0.1	-4.0	4.7	-2.3	1.7
CCCCOCCCNC(=O)Cc1cccs1	-17.6	10662	3.7	16.0	5.5	2.1	6.5
COc1ccc(NC(=O)COC(=O)c2cccc(S(=O)(=O)N3CCCCC3)c2)c(OC)c1	-2.9	6054	-0.6	0.1	1.9	.	-0.5
CCCCn1c(N)c(N(CC(C)C)C(=O)C2CCN(S(=O)(=O)c3ccc(C)c(C)c3)CC2)c(=O)[nH]c1=O	-13.2	6108	2.9	-1.0	3.4	-1.1	-2.2
O=S(=O)(NCC(Nc1ccc(Cl)cc1)c1ccccc1)c1ccccc1 (centres undefined)	-12.6	2781	-11.5	-0.9	2.7	16.9	-3.3
Cc1[nH]c2ccccc2c1/C=N/NC(=O)c1cccc(S(=O)(=O)Nc2ccccc2Cl)c1	9.6	13351	.	.	.	-0.9	.
COc1ccc(-c2nnc(SCC(=O)N(C)C3CCS(=O)(=O)C3)n2N)cc1OC (centres undefined)	-39.5	5049	1.5	0.3	5.5	-1.2	0.7
O=C1C(=O)N(CCCn2ccnc2)C(c2ccc([N+](=O)[O-])cc2)/C1=C(\O)c1ccc2c(c1)OCCO2 (centres undefined)	-9.8	8055	1.3	-2.4	1.1	.	1.1
COc1ccc(N2CCN(C(=O)Cn3cnc4sc(C)c(S(=O)(=O)N5CCOCC5)c4c3=O)CC2)cc1	-1.6	5517	6.2	-3.5	-3.3	-5.7	1.4
CN1C(=O)C(=O)N(c2cccc(C(F)(F)F)c2)C1=O	-8.9	5946	-1.2	4.7	8.5	-5.1	2.4
Cc1cccc(C(=O)O/N=C/c2c(Cl)n(C)c3ccccc23)c1	-16.0	2625	.	.	.	-0.5	.
CCNS(=O)(=O)c1ccc(Br)c(OC)c1	-2.7	20265*	-1.8	13.6	8.2	-1.2	7.9
O=C(N/N=C\c1cccnc1)c1cc(-c2ccc(Cl)s2)[nH]n1	-26.2	3607	.	.	.	-4.5	.
O=S(=O)(Nc1cccc2ncccc12)c1cccc(C(F)(F)F)c1	-25.5	6739	0.4	4.7	3.3	.	11.8
CC(=O)NCCc1ccc(S(=O)(=O)N2CCOCC2)cc1	5.7	4115	4.9	.	.	.	0.4
O=C(Nc1ccc2cccnc2c1)c1ccc(Br)cc1	-34.4	3215	13.1	10.9	16.4	-7.6	0.8
CCOC(=O)CNC(=O)CSc1cc(C)nc2ccc(OC)cc12	-23.5	4373	6.3	.	.	-2.2	3.3
COc1ccc(S(=O)(=O)N2CCSC2c2ccc(OC)c(OC)c2)cc1 (centres undefined)	-7.5	?	11.9	-0.3	0.6	-2.1	6.0
CC1CCCN(CCCNC(=O)c2cc3c(Cl)nc4ccccc4c3s2)C1 (centres undefined)	-22.9	2535	2.3	0.9	11.5	16.9	3.8
CCOC(=O)C1C2COc3ccc(OC)cc3C2N2C(=O)CN(Cc3ccccc3)C(=O)[C@@]12C (some centres undefined)	.	.	0.0	9.6	5.4	.	8.5
CCCc1cc(C(=O)Nc2cccnc2)no1	-20.9	5672	-1.9	8.7	8.6	-3.2	4.0
OC(COc1ccccc1)CN1CCN(Cc2ccc3c(c2)OCO3)CC1 (centres undefined)	-22.3	5259	5.0	8.7	4.4	13.0	1.0
COc1ccc(N2CCN(C(=O)CCCNC(=O)Cn3cnc4sc(C)c(C)c4c3=O)CC2)cc1	-6.5	5163	2.7	2.8	2.9	11.5	4.6
C=CCN(C(=O)c1csnn1)C(C(=O)NC1CCCCC1)c1ccc(C)cc1 (centres undefined)	-3.6	4137	8.8	-5.5	-3.8	9.4	1.9
C#CCOCCOCCOCCNc1nc(N2CCN(C(=O)Cn3cc(CCCCN)nn3)CC2)nc(N2CCN(C(=O)Cn3cc(CCCN=C(N)N)nn3)CC2)n1	-5.4	4115	-7.1	4.5	3.8	.	-10.1

Part of the list above, with values under each structure:
Every second line gives: PrP 5UTR inh	Autofluor counter	Sa ugtP lethal	Mtb hypoxia inh	Mtb hypoxia inh growth	BJeLR lethal	Sa RN4220 lethal
COc1ccc(N2CCN(C(=O)CCCNC(=O)Cn3cnc4sc(C)c(C)c4c3=O)CC2)cc1
    -6.5	5163	2.7	2.8	2.9	11.5	4.6
C=CCN(C(=O)c1csnn1)C(C(=O)NC1CCCCC1)c1ccc(C)cc1 (centres undefined)
    -3.6	4137	8.8	-5.5	-3.8	9.4	1.9

Assay outcomes from PubChem BioAssay.
